Compound activity from PubChem.
RN4220 kill – kills Staphylococcus aureus RN4220. S. aureus RN4220 growth, OD600, 16 h. inhibition, % (concentration not given with the values). hit rate 0.33% among 330,000. AID 1259311;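 active = z-score of -3 or lower and OD600 up to 0.18 on both plates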;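 also: plate controls were untreated cells for no effect and reference antibiotic for full effect; stock transfer was 100 nL into about 80 µL; one replicate is shown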
Sa ugtP lethal – compounds lethal to S. aureus RN4220 ugtP deletion mutant; AID 1259309; growth inhibition, % (concentration not given with the values); hit rate 0.54% among 330,000; OD600 growth, 16 h; some inactives read as strong as hits;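 active = z-score under -3 and OD600 up to 0.15 on both plates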;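 also: plate controls were untreated wells for no effect and antibiotic for full effect; wells of about 80 µL received 100 nL stock; the first replicate is given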
BJeLR viability – kills HRASV12-expressing BJeLR cells; inhibition, % (test concentration not listed); hit rate 0.17% among 300,000; BJeLR (HRASV12) viability, CellTiter-Glo ATP luminescence, 48 h; reference of the scale not given here; AID 1554;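 active = replicate mean above 50%; inconclusive = above 50% but judged a plate artefact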;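 also: 50 nL library stock added to about 25 µL; numbers are from one replicate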
PrP 5UTR inh – suppresses PrP 5' UTR mRNA reporter expression. AID 488862. cell-based PrP 5' UTR mRNA reporter, plate reader. inhibition, % (no concentration beside the values). hit rate 0.35% among 340,000;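 active = every replicate at 50% or more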;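 also: 0 = median of the neutral control wells; tested in H4 reporter cells; numbers are from one replicate; inactives centre near -14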
Mtb hypoxia inh – reduces hypoxia-regulated biosensor signal in M. tuberculosis; fluorescence inhibition, % (no concentration beside the values); hit rate 0.1% among 300,000; M. tuberculosis hypoxia-regulated fluorescent reporter, fluorescence;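 active = 35 to 45% if threefold the growth effect, above 45% if 1.5-fold the growth effect; inactive = the rest, general growth blockers included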;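 also: wells of about 50 µL received 100 nL stock; 0% = vehicle wells and 100% = reference inhibitor wells; whole bacteria with a GFP reporter of the hypoxia response; strong numbers were not always called active; many hits fall short of the cut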
Bead autofluor – compound fluorescence in toxin protease inhibitor counterscreen; hit rate 3.1% among 360,000; compound autofluorescence counterscreen, microsphere flow cytometry; active compounds read high; fluorescence intensity (no concentration beside the values); AID 624483;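 active = at least 3 SD above the mean of all compounds, about 16000 in these data; inconclusive = too few beads counted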;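 also: 100 nL of 1 mM stock went into each well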
Mtb hypoxia inh growth – also measured in Mtb hypoxia inh; calls as there; growth inhibition, %; measured here: M. tuberculosis growth (absorbance);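 0% = vehicle and 100% = reference antibiotic; read after six days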
* hit, by the source's call; ? = inconclusive; / = not tested or not shown; & = joins results of further samples. The order is random. About 3.9% of those tested had a hit in this group.

SMILES	RN4220 kill	Sa ugtP lethal	BJeLR viability	PrP 5UTR inh	Mtb hypoxia inh	Mtb hypoxia inh growth	Bead autofluor
O=C(NN=C1CCCC1)c1[nH]c2ccc(Cl)cc2c1-c1ccccc1	-3.7	-26	-3	-19	10	7	3867
CSc1ccc(/C=C/C(=O)OCC(=O)NC2CC2)cc1	-0.1	-1	/	-23	-1	5	5399
Nc1nc(C2CCOCC2)cs1	5.1	-2	-11	41	6	6	4048
COc1ccc(C(=O)n2cnc3ccccc32)cc1Br	3.2	3	10	-29	5	10	6150
c1ccc(CN2CCNCC2)nc1	0.5	7	0	-26	0	-7	3193
CCOC(=O)C(=NNc1ccc(C(C)=O)cc1)c1csc(Nc2ccccc2)n1	-7.4	-5	/	/	11	-2	/
CC1(C)Cc2c(c(=S)nc(-c3ccccc3)n2CCN2CCOCC2)CO1	4.3	5	-2	-2	4	11	11078
Cc1cccc(C=NNC(=O)c2ccccc2OCc2cccc(Br)c2)n1	-1.4	6	/	/	0	10	/
O=S(=O)(c1ccc2ccccc2c1)N1CCN(S(=O)(=O)N2CCCCC2)CC1	-2.0	-3	3	-19	3	6	10912
COc1ccc(CCNC2=C(Cl)C(=O)N(CCc3ccc(OC)c(OC)c3)C2=O)cc1OC	0.1	-4	-1	-6	/	/	4572
COc1ccccc1-n1cnc2cc(NC(=O)c3ccco3)ccc21	2.6	4	1	-32	13	9	9235
COc1cc(C2Nc3ccc4ncccc4c3C3=C2C(=O)CCC3)cc(OC)c1O (stereo not given)	3.6	5	22	2	/	/	2600
O=C(N1CCN(c2ccccc2)CC1)C1(S(=O)(=O)c2ccc(Cl)cc2)CC1	1.9	1	3	-3	-1	-1	5843
CNc1sc(C(=O)c2ccc(F)cc2)c(N)c1-c1nc2ccccc2s1	-0.6	-9	0	9	2	0	18218*
O=C(O)c1cc(Cl)ccc1NC(=O)C1CCCO1 (stereo not given)	4.3	9	-5	-17	2	2	9580
CCN(C(=S)Nc1ccc(OC(F)F)cc1)C1CCCCC1	12	5	6	-39	19	4	4581
O=C(Nc1nc2ccc(Cl)cc2s1)c1ccc(Br)o1	5.4	-20	9	-76	-2	4	3064
O=C(O)C1CC=C(Cl)CC1C(=O)NCc1ccccc1 (stereo not given)	5.7	-1	-13	-25	5	11	9352
Cc1ccccc1NC(=O)c1ccc(CSc2ncccn2)cc1	2.4	0	10	-32	-1	11	16598*
O=C(Nc1ccc(N2CCOCC2)cc1N1CCOCC1)c1ccco1	0.5	3	7	-25	13	11	3673
CCN(C(=O)CN1C(=O)c2ccc([N+](=O)[O-])cc2C1=O)C1CCS(=O)(=O)C1 (stereo not given)	0.9	3	2	-7	-1	-3	5850
CC(=O)Nc1ccc(NC(=O)CCC(=O)NCCO)cc1	7.4	5	-9	-25	8	10	11504
CCC1CN(C(=O)NCc2ccc(C)cc2)c2cc(Cl)ccc2O1 (stereo not given)	1.1	14	1	-16	-2	2	3539
O=C(c1cc(N2C(=O)C3C4CCC(C4)C3C2=O)ccc1Cl)N1CCN(c2ccccc2)CC1 (stereo not given)	1.7	-3	12	-18	-4	2	2402

Compound profiles, as listed above. Order of values: RN4220 kill	Sa ugtP lethal	BJeLR viability	PrP 5UTR inh	Mtb hypoxia inh	Mtb hypoxia inh growth	Bead autofluor
CNc1sc(C(=O)c2ccc(F)cc2)c(N)c1-c1nc2ccccc2s1 is entered as -0.6	-9	0	9	2	0	18218*
CCN(C(=S)Nc1ccc(OC(F)F)cc1)C1CCCCC1 is entered as 12	5	6	-39	19	4	4581
O=C(N1CCN(c2ccccc2)CC1)C1(S(=O)(=O)c2ccc(Cl)cc2)CC1 is entered as 1.9	1	3	-3	-1	-1	5843
O=C(O)C1CC=C(Cl)CC1C(=O)NCc1ccccc1 (stereo not given) is entered as 5.7	-1	-13	-25	5	11	9352
O=C(O)c1cc(Cl)ccc1NC(=O)C1CCCO1 (stereo not given) is entered as 4.3	9	-5	-17	2	2	9580

More records follow.
SMILES	RN4220 kill	Sa ugtP lethal	BJeLR viability	PrP 5UTR inh	Mtb hypoxia inh	Mtb hypoxia inh growth	Bead autofluor
COc1ccc(C(=O)N2c3ccccc3C(=O)OC2c2ccc3c(c2)OCO3)cc1 (stereo not given)	1.1	-7	1	-30	/	/	2991
Cc1ccnc(N2CCC(C(=O)Nc3ccc4c(c3)OCCO4)CC2)n1	3.2	5	4	-38	18	-2	4079
Cn1c(=O)c2cc(S(=O)(=O)NCCC(=O)NCCC3=CCCCC3)ccc2n(C)c1=O	5.1	6	-1	-14	9	5	10426
CC[C@@H](C)[C@@H](C(=O)N1CCN(C(=O)OC(C)(C)C)CC1)n1cc(CCCN=C(NC(=O)OC(C)(C)C)NC(=O)OC(C)(C)C)nn1	/	/	-11	-6	/	/	4009
NNC(=O)c1ccc(COc2ccc3ccccc3c2)o1	7.9	0	-1	-21	7	-11	?
CC(C#N)Sc1nc2ccccc2c(=O)n1-c1ccccc1 (stereo not given)	4.0	29	-2	-60	15	13	5263
CC1CCCc2sc3nc(N4CCN(CCO)CC4)n4ncnc4c3c21 (stereo not given)	6.8	9	-5	-19	24	11	6714
CC(C)=C(NC(=O)c1ccccc1)C(=O)N1CCOCC1	3.4	10	4	3	-4	3	6838
CC(C)/C=N/Nc1nc2c(c(=O)n(C)c(=O)n2C)n1C	/	/	10	-20	/	/	4497
CCN1C(=O)C2C(c3ccc(-c4ccc(F)cc4)cc3)N3CCCC[C@@]3(C(=O)OC)C2C1=O (stereo not given in full)	-5.2&0.2	9&-1	/	/	11&-7	6&-2	/
CCCCOc1ccc(C(=O)N/C(=C\c2cccc([N+](=O)[O-])c2)C(=O)OCc2ccco2)cc1	5.3	-1	-4	-9	-2	5	2454
CS(=O)(=O)N1CCC(C(=O)N2CCN(C(c3ccccc3)c3ccccc3)CC2)CC1	-2.5	7	11	-13	12	7	3375

Molecules listed so far that contain a COOH group (2):
SMILES	RN4220 kill	Sa ugtP lethal	BJeLR viability	PrP 5UTR inh	Mtb hypoxia inh	Mtb hypoxia inh growth	Bead autofluor
O=C(O)c1cc(Cl)ccc1NC(=O)C1CCCO1 (stereo not given)	4.3	9	-5	-17	2	2	9580
O=C(O)C1CC=C(Cl)CC1C(=O)NCc1ccccc1 (stereo not given)	5.7	-1	-13	-25	5	11	9352

Remaining list, next part
SMILES	RN4220 kill	Sa ugtP lethal	BJeLR viability	PrP 5UTR inh	Mtb hypoxia inh	Mtb hypoxia inh growth	Bead autofluor
O=C(NC(=S)Nc1ccc(S(=O)(=O)Nc2nccs2)cc1)c1ccccc1F	51	6	7	-18	11	9	3940
COc1ccc(-n2ccc(-c3nn(-c4cccc(C(F)(F)F)c4)ccc3=O)n2)cc1	6.9	-11	3	-6	11	3	2797
Cc1cccc(-n2c(C)cc(/C=N/NC(=O)c3cccc([N+](=O)[O-])c3C)c2C)c1	/	/	-5	-9	/	/	2932
CCOC(=O)N(c1ccccc1)P1(=S)OCC(C)O1 (stereo not given)	7.6	-4	1	-25	11	9	20958*
CC(Cc1ccccc1)C(=O)NCc1ccccn1 (stereo not given)	1.8	7	14	-24	11	12	4446
CN(C)CCNCc1ccccc1OC1CCCC1	6.2	1	4	/	8	9	12221
CC(=O)Cc1nsc(NC(=O)c2ccc(-c3ccccc3Cl)o2)n1	10	-2	-2	-33	-77	-20	3810
COc1ccc(C(=O)Nc2cccc(C(=O)O)c2)cc1S(=O)(=O)N1CCCC1	2.8	9	-3	-10	9	7	5225
CCCCNC(=S)N1CCN(c2nc3ccccc3s2)CC1	-2.5	4	12	-73	12	12	3302
COc1cccc(OC)c1C(=O)Nc1cccc(C(C)=O)c1	-4.0	0	10	-14	0	4	3700
CCN(CC)C(=O)C(=O)N/N=C/c1cccc(Br)c1	/	/	-3	-6	/	/	3419
CC12CCC(C(=O)N3CCN(C(c4ccccc4)c4ccccc4)CC3)(OC1=O)C2(C)C (stereo not given)	-5.1	-3	-5	-25	-2	-2	6873

Compounds above with two or more sulfur atoms:
SMILES	RN4220 kill	Sa ugtP lethal	BJeLR viability	PrP 5UTR inh	Mtb hypoxia inh	Mtb hypoxia inh growth	Bead autofluor
O=S(=O)(c1ccc2ccccc2c1)N1CCN(S(=O)(=O)N2CCCCC2)CC1	-2.0	-3	3	-19	3	6	10912
CNc1sc(C(=O)c2ccc(F)cc2)c(N)c1-c1nc2ccccc2s1	-0.6	-9	0	9	2	0	18218*
O=C(NC(=S)Nc1ccc(S(=O)(=O)Nc2nccs2)cc1)c1ccccc1F	51	6	7	-18	11	9	3940
CCCCNC(=S)N1CCN(c2nc3ccccc3s2)CC1	-2.5	4	12	-73	12	12	3302

Additional structures.
SMILES	RN4220 kill	Sa ugtP lethal	BJeLR viability	PrP 5UTR inh	Mtb hypoxia inh	Mtb hypoxia inh growth	Bead autofluor
Cc1cccc(NC(=O)CCC(=O)Nc2nnc(C(F)(F)F)s2)c1	3.3	8	-8	-20	6	-5	5901
CCCCCn1c(Sc2ncccn2)nc2c1c(=O)[nH]c(=O)n2C	4.6	-9	10	-1	/	/	4299
CC(=O)c1c(C)[nH]c(C(=O)Nc2ccc(F)cc2F)c1C	5.0	-1	-4	-21	18	2	5972
CSc1nsc(SC)c1C(=O)Nc1ccc(C)cc1	6.1	-3	-9	4	12	21	2387
COC(=O)/C=C/C(=O)Nc1cccc(C(F)(F)F)c1	10	-6	25	-7	15	9	8890
CCOC(=O)CNC(=S)n1ncnc1N	3.4	-3	8	-18	9	-3	2216
C/C=C/c1ccc(OCC(=O)Nc2cc(OC)c(OC)c(OC)c2)c(OC)c1	-14	-58	-10	3	11	6	4491
Cc1nc(SCC#N)c2c(C)c(C)sc2n1	5.2	4	-2	-19	4	0	9302
COc1cnn(C(C)(C)C)c(=O)c1Cl	2.7	-1	3	-23	9	9	19156*
COc1ccc(N2CCN(C(CNC(=O)C(C)(C)C)c3cccnc3)CC2)cc1 (stereo not given)	3.0	7	5	1	-1	1	2582
Cc1[nH]nc2c1C(c1ccc3c(c1)OCO3)C(C#N)=C(N)O2 (stereo not given)	3.4	5	-6	-7	-3	0	4887
CC(C)n1cc(/C=C/c2cc[n+](C)cc2)c2ccccc21	2.4	2	4	-21	8	15	7713
CC(=NNC(=O)CSCc1cccc(Br)c1)c1ccc([N+](=O)[O-])cc1	4.8	-13	/	/	12	9	/
CNC(=O)c1ccccc1NC(=O)c1cccc(S(=O)(=O)N2CCC(C)CC2)c1	-3.2	0	-1	-2	9	8	2558
O=C(NNC(=O)c1cc(-c2ccco2)nc2ccccc12)c1ccccc1	24	6	5	-8	15	7	5974
O=C(/C=C/c1ccc(F)cc1)N1CCN(S(=O)(=O)/C=C/c2ccccc2)CC1	1.7	-3	5	-11	-8	-8	3884
CC1CCN(CCNC(=O)C2CCCN(S(=O)(=O)c3cccc4nsnc34)C2)CC1 (stereo not given)	4.1	0	7	-8	9	-1	4423
Nc1c(C(=O)NN=Cc2ccccc2)cnn1-c1ccccc1	2.8	9	/	/	14	9	/
c1ccc(-n2nnc(-c3cccnc3)n2)cc1	8.4	-2	3	-47	11	4	2850
Cc1ccc2nc3c(cc2c1)c(C)nn3-c1ccccc1	-15	20	-7	-24	1	8	3841
Cc1cc(OCc2cc(C(=O)NCc3csc(C(C)C)n3)no2)cc(C)c1Cl	-4.1	-9	1	-3	-3	8	?
COc1ccc(-c2noc(CCC(=O)NCC3CCCO3)n2)cc1OC (stereo not given)	4.0	-7	5	-25	13	6	5897
COc1ccc(Nc2cc(C(=O)NCCCOC(C)C)c3ccccc3n2)c(OC)c1	2.5	3	-1	-6	3	11	3366
CC(=O)N1CCCc2ccccc21	3.8	11	8	5	15	4	8984
CC(=O)c1cccc(NC(=O)N2CCC(NC(=O)C34CC5CC(CC(C5)C3)C4)CC2)c1	2.2	3	-5	-12	-7	3	3196
CC1CN(C(=O)c2cc3cc([N+](=O)[O-])ccc3s2)CC(C)O1 (stereo not given)	2.4	7	7	-20	14	17	3892
CC(O)CNc1nc2ccccc2n1CC(=O)NCCc1ccc(Cl)cc1 (stereo not given)	-3.6	-7	0	-9	-2	2	?
CCCCCCOc1ccc(C(=O)O)cc1C#N	8.3	-15	-9	-16	7	6	1903
